KCNQ2 inh: KCNQ2 potassium channel inhibitors, primary screen, cell-based, CHO-K1, FluxOR thallium flux, B-score (AID 2156); B-score at 10 µM; 20 min; hits give low values; only compounds with negative scores are shown here; some inactives read as strong as hits; hit rate 1.1% among 310,000;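 active = fluorescence ratio B-score at most minus 3 library SDs, with starting brightness B-score within 2 library SDs, cut at about -5.5 in these data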
Target sequence (O88943 whole entry, looked up): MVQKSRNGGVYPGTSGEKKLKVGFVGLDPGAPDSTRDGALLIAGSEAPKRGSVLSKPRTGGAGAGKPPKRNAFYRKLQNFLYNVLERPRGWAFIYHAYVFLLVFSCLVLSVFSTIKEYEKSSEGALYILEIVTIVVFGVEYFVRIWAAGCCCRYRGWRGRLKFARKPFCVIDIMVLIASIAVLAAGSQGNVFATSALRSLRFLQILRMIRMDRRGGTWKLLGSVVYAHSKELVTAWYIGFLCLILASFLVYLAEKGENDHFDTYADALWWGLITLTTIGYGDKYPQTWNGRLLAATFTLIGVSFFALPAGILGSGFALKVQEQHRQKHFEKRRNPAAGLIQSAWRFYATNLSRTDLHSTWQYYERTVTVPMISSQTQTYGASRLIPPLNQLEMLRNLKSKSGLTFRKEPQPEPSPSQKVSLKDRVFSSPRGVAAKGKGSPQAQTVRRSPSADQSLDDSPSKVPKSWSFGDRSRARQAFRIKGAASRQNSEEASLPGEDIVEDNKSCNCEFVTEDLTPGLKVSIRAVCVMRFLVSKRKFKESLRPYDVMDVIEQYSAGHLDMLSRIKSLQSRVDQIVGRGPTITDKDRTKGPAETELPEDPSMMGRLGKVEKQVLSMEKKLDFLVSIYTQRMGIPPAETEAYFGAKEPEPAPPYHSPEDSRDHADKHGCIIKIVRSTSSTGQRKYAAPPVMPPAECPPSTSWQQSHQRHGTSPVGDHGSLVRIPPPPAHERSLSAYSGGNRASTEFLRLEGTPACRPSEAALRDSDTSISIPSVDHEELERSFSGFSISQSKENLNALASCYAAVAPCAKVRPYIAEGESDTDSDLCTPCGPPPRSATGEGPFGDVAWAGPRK
KCNQ2 inh baseline: recorded beside KCNQ2 inh, whose call it bears; B-score; measured here: initial fluorescence intensity artifact check;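 brightness before thallium and not channel activity; 0 = typical well and far values either way flag optical interference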
* hit, by the source's call; i = inactive. Only part of the results is shown; count on the stated rates, not on these rows.

SMILES	KCNQ2 inh	KCNQ2 inh baseline
CCOc1ccc(NC(=O)C2CC(=O)N(C(C)C)C2)cc1 (stereo not given)	i	0.18
Cc1ccc(NS(=O)(=O)c2ccc(C)c(NC(=O)COc3ccccc3)c2)c(C)c1	i	-0.48
COC(=O)c1ccc(Oc2c(C)oc3cc(OCc4cnn(-c5ccccc5)c4)ccc3c2=O)cc1	i	-0.59
COc1cccc(NC2c3ccccc3C(=O)N2Cc2ccccc2Cl)c1 (stereo not given)	i	-0.23
c1ccc(-c2cn(-c3ccccc3)c3[n+]2CCS3)cc1	i	-1.7
CC(c1ccncn1)N(C)Cc1nc(-c2ccc(C(F)(F)F)cc2)no1 (stereo not given)	i	0.98
N#CC(=C1SC=CS1)c1nc(-c2ccccc2)cs1	i	2.9
C=CCn1c(SCc2cc(=O)n3ccsc3n2)nc2cc(Cl)ccc2c1=O	i	-0.04
COc1ccc(CCn2c(C)cc(C(=O)COC(=O)c3cnccn3)c2C)cc1	i	3.2
COc1cccc(CNC(=O)CCCCCn2c(=S)[nH]c3ccc(N4CCOCC4)cc3c2=O)c1	i	-0.45
COc1cccc(NC(=O)NNC(=O)C(C)Oc2ccc3ccccc3c2)c1 (stereo not given)	i	-0.01
Cc1cc2n(n1)C(c1cn(-c3ccccc3)nc1C)Nc1c(C)cccc1-2 (stereo not given)	i	0.97
Brc1ccc(-c2nnc3sc(CNCc4ccc5c(c4)OCO5)cn23)cc1	i	-1.7
Cc1ccsc1C(=O)Nc1ccccc1N1CCCC1	i	-0.7
C[C@@H](C(=O)NCCc1ccc(F)cc1)N1C(=O)N2CCc3c([nH]c4ccccc34)[C@@]2(C)C1=O	-6.3*	1.3*
CCOCCCNC(=O)c1ccc2c(c1)ncn2-c1ccccc1OC	i	-2.1
O=C(CCCOc1ccc(Cl)cc1)NC1CCCCC1	i	-0.11
CC(C)CC(c1nnnn1Cc1ccccc1)N1CCN(C(=O)c2ccco2)CC1 (stereo not given)	i	-0.64
O=C1Cc2cc([N+](=O)[O-])ccc2N1c1c(Cl)cccc1Cl	i	-0.13
COc1ccc(CNC(=O)CN(c2ccc(OC)c(Cl)c2)S(=O)(=O)c2ccc(C)cc2)cc1	i	-0.89
O=c1cc(-c2ccccc2)[nH][nH]1	i	0.08
O=C(CN1C(=O)c2ccccc2C1=O)NCCc1c[nH]c2ccccc12	i	0.88
Cc1cc(C)c(C)c(S(=O)(=O)NCC(=O)NCC2CCCCC2)c1C	i	-0.63
CCOC(=O)C1=C(CBr)NC(=O)NC1C (stereo not given)	i	-0.66
Cc1[nH]c(=O)[nH]c(=O)c1Sc1ccccc1[N+](=O)[O-]	i	0.49

Looked up above:
In KCNQ2 inh baseline, N#CC(=C1SC=CS1)c1nc(-c2ccccc2)cs1 has 2.9
In KCNQ2 inh baseline, C=CCn1c(SCc2cc(=O)n3ccsc3n2)nc2cc(Cl)ccc2c1=O has -0.04
In KCNQ2 inh baseline, COC(=O)c1ccc(Oc2c(C)oc3cc(OCc4cnn(-c5ccccc5)c4)ccc3c2=O)cc1 has -0.59
In KCNQ2 inh baseline, Cc1cc(C)c(C)c(S(=O)(=O)NCC(=O)NCC2CCCCC2)c1C has -0.63
In KCNQ2 inh baseline, Cc1cc2n(n1)C(c1cn(-c3ccccc3)nc1C)Nc1c(C)cccc1-2 (stereo not given) has 0.97
In KCNQ2 inh baseline, COc1cccc(CNC(=O)CCCCCn2c(=S)[nH]c3ccc(N4CCOCC4)cc3c2=O)c1 has -0.45

Other results.
SMILES	KCNQ2 inh	KCNQ2 inh baseline
O=S(=O)(NCC1(N2CCOCC2)CCCCC1)c1ccccc1Cl	i	1.5
CCOC(=O)C(=CNc1cc(C)nn1-c1ccc(Cl)cc1)C(=O)OCC	i	1.6
O=C(NCCc1ccccc1)C1CCN(S(=O)(=O)c2cccc3nonc23)CC1	i	0.46
CCOC(=O)c1cc(-c2cccnc2)nn1-c1ccccc1C	i	0.01
O=c1[nH]c2ccc(Br)cc2c(-c2ccccc2)c1CN1CCOCC1	i	-0.72
CN(C)c1ccc(/C=C/c2nc3ccccc3c(=O)n2-c2ccc(C(=O)O)cc2)cc1	i	21
Cc1ccc(NC2CCCCC2NS(=O)(=O)c2ccccc2)c(C)c1 (stereo not given)	i	-0.72
Cc1nc(C)c(Oc2cccc(C(F)(F)F)c2)c(=O)[nH]1	i	-0.66
COc1ccccc1N1CCN(/N=C/c2ccc(Cl)c([N+](=O)[O-])c2)CC1	-6.1*	1.8*
N#CC1=C(N)NC(=S)C(C(N)=O)C1c1ccccc1F (stereo not given)	i	0.41
O=C(c1cnccn1)N(c1ccccc1)C1(C(=O)NC2CCCCC2)CCCCC1	i	-0.07
Cn1cc(S(=O)(=O)NCc2ccc(Cl)cc2)c(=O)n(C)c1=O	i	0.41
O=C1CC(c2cccc(Cl)c2)CC(O)=C1C=Nc1ccccc1 (stereo not given)	i	0.93
COc1ccc(CN2CCNC(=O)C2CC(=O)NC2CC(C)(C)CC(C)(C)C2)cc1OC (stereo not given)	i	0.13
CCOC(=O)c1ccc(NC(=O)c2nc[nH]c2C(=O)N2CCc3ccccc3C2)cc1	i	-1.1
CCn1c(SCC(=O)NNC(=O)c2ccccc2)nnc1-c1ccco1	i	2.1
CSc1nccc(-c2c(-c3ccc(Cl)cc3)noc2C)n1	i	0.01
COc1cccc(N2CCN(C(=O)c3ccc(-c4ccccc4)cc3)CC2)c1	i	-0.39
Cc1occc1-c1nnc(SCC(=O)c2ccc(F)cc2)o1	i	0.84
Cc1ccc(S(=O)(=O)c2c(C)cc(C)nc2Cl)cc1	i	-1.3
COc1ccc(N(S(=O)(=O)c2ccccc2)S(=O)(=O)c2ccccc2)c(N)c1	i	-0.22
O=c1[nH]c(C2CCCN(S(=O)(=O)c3ccccc3)C2)nc2c1nnn2Cc1ccccc1F (stereo not given)	i	-0.03
c1ccc(-c2nnc(OCc3cccnc3)c3ccccc23)cc1	i	0.11
COc1ccc2[nH]c(=O)c(CN(C3CCCCC3)C(c3nnnn3Cc3ccco3)C(C)C)cc2c1 (stereo not given)	i	2.2
CCOC(=O)CC1=C(C(=O)OCC)C(c2cccs2)C(C#N)=C(N)O1 (stereo not given)	i	1.1

The results go on:
SMILES	KCNQ2 inh	KCNQ2 inh baseline
Cc1ccc(NC(=O)CN(C)C2CCCCC2)cc1Br	i	-1
c1ccc(-c2cc3n(c2)CCc2ccccc2-3)cc1	i	-1.2
O=C(Cc1ccccc1)NC(Nc1ccccc1)C(Cl)(Cl)Cl (stereo not given)	i	0.01
CCCCC1CCC(C(=O)N(C)CC(=O)Nc2cccc(F)c2)CC1 (stereo not given)	i	2.4
CC1=C(C(=O)Nc2ccccc2)C2(CCCCC2)C(C(N)=O)C(=S)N1 (stereo not given)	i	0.81
Cc1ccccc1OCCn1nc(C(=O)O)c2ccccc2c1=O	i	-0.5
CC(C)c1nc2ccccc2n1CC(O)COC1CCCCC1 (stereo not given)	i	0.44
O=Cc1ccc(N2CCCCCC2)cc1	i	-0.96
COc1ccc(-c2csc3ncnc(NCCO)c23)cc1	i	1.7
CCC(=O)N(CCC(c1ccc(C)cc1)c1ccco1)Cc1ccco1 (stereo not given)	-10*	-1.2*
Cc1cc2c(cc1S(=O)(=O)N1CCN(c3ccccc3)CC1)OCCN2C	i	-1.8
Cc1cc(/C=N/n2cnnc2)c(C)n1-c1ccc(OCc2ccc(Cl)cc2Cl)cc1	i	-0.19
Cc1cc[n+](CC(=O)c2ccc(NC(=O)c3ccccc3)cc2)cc1	i	0.43
COC(=O)c1cc(OC)c(OC)cc1NC(=O)c1ccc(OC)c(OC)c1	i	0.2
CCOC(=O)c1[nH]c(COC(=O)C2CC(=O)N(Cc3ccccc3)C2)c(C(=O)OCC)c1C (stereo not given)	i	1.6
Cc1c(CN2CCCC(CO)(Cc3cccc(Cl)c3)C2)cnn1C (stereo not given)	i	2.8
CCCn1c(COc2ccc(C(=O)O)cc2)nc2ccccc21	i	2.3
COC(=O)c1ccc(NC(=S)NCCC2=CCCCC2)cc1	i	0.02
CCN1c2ccccc2S(=O)(=O)c2ccccc21	i	-2.9
COc1ccc2nc(NC(=O)CSc3nc(C)cc(C)n3)sc2c1	i	-0.64
CC1CCCC(NC(=O)c2cn(C)c3ccc(S(=O)(=O)N4CCCC4)cc3c2=O)C1C (stereo not given)	i	0.49
COc1ccc(-n2nc3c(=O)[nH][nH]c3cc2=O)cc1	i	0.38
O=C(CN1CCCC1)Nc1sc2c(c1C(=O)Nc1ccc(Br)cc1)CCC2	i	-1.5
Clc1ccc(C2=NN(c3ccccc3)C(c3ccco3)C2)cc1 (stereo not given)	i	-0.54
O=C(/C=C/c1ccccc1)N(c1ccccn1)C1CCCCC1	i	-1.8

(listing goes on)
SMILES	KCNQ2 inh	KCNQ2 inh baseline
COc1ccc(S(=O)(=O)N(C(=O)c2ccncc2)c2ccc3oc4c(c3c2)CCCC4)cc1	-5.7*	0.07*
CCn1c(/C=C/Nc2ccccc2)[n+](CC)c2ccc(Cl)cc21	i	0.46
CCn1c2ccccc2c2cc(NC(=O)CCCN3C(=O)CCC3=O)ccc21	i	2.6
Nc1ccccc1C(=O)NNc1ncc(C(F)(F)F)cc1Cl	i	-0.75
CC(C)OP(=O)(c1ccc(N(C)C)cc1)C(O)c1ccccc1F (stereo not given)	i	-0.01
CC(=O)NC(Cc1ccccc1)C(=O)NC1CCN(c2ncccc2[N+](=O)[O-])CC1 (stereo not given)	i	0.3
O=C(N/N=C/c1ccccn1)c1cccc(S(=O)(=O)N2CCCC2)c1	i	-2.3
CCN(CC)c1nc(N)c2c(N)n(-c3ccccc3C)c(=S)c(C#N)c2c1C#N	i	1.6
O=C(CSc1nc(C2CC2)nc2ccccc12)NCc1ccc2c(c1)OCO2	i	-0.02
CCCCn1c(N)c(N(CC(C)C)C(=O)C2CSC3(C)CCC(=O)N23)c(=O)[nH]c1=O (stereo not given)	i	0.03
O=C(CCCN1C(=O)/C(=C/c2cccs2)SC1=S)Nc1cc([N+](=O)[O-])ccc1O	i	-1.2
c1ccc(Cc2ccc(OCCN3CCOCC3)cc2)cc1	i	1.2
CCOc1ncccc1C(=O)OCC(=O)N1CCN(S(=O)(=O)c2ccccc2)CC1	i	2.5
Cc1c(Cl)cccc1NC(=O)CC(NCCN1CCOCC1)C(=O)O (stereo not given)	i	-3.6
COc1ccc(NC(=O)c2c(-c3ccccc3)noc2C)c(OC)c1	i	0.39
CN(Cc1nc(-c2cnccn2)no1)CC1CCN(Cc2ccccc2)CC1	i	0.99
Cc1nonc1OCCNCc1c(C(=O)N2CCCCCCC2)nc2ccc(Cl)cn12	i	-0.06
O=C1CSC(=S)N1c1cccc(F)c1	i	0.44
O=C(O)CCCNc1n[nH]c(=O)[nH]c1=O	i	-0.05
Cn1c(=O)c2c(nc(CN3CCOCC3)n2CCN2CCOCC2)n(C)c1=O	i	1.4
COCCn1c(SCC(=O)NCC2CCCO2)nc2c(c1=O)SCC2 (stereo not given)	i	-1
O=C(Cn1cc(SCc2ccccc2Cl)c2ccccc21)N1CCOCC1	i	-0.05
Cc1cc(N=NC(=O)c2ccccc2)ccc1O	i	2.7
CCOCCCNC(=O)C(NC(=O)c1ccc(=O)[nH]c1)c1ccc(Cl)cc1 (stereo not given)	i	-2
CCc1nnc(NC(=O)c2cccnc2)s1	i	0.87

Remaining list, next part:
SMILES	KCNQ2 inh	KCNQ2 inh baseline
CCCSc1oc(-c2ccco2)nc1S(=O)(=O)c1ccc(C)cc1	i	2
C/C(=N\NC(=O)c1cc(-c2ccccc2C)nc2ccccc12)c1cccnc1	i	-0.48
COC(=O)c1c(C)nc(C)c2c(=O)oc3ccccc3c12	i	-1
COC(CN(C(=O)CCl)C(C(=O)NC1CCCC(C)C1C)c1ccc(C)cc1)OC (stereo not given)	i	-0.85
CC(=O)SC1CC(=O)N(c2ccc(C(C)(C)C)cc2)C1=O (stereo not given)	i	0.3
CCN(CC)c1ccc(/C=C/c2cccc[n+]2C)c(OC)c1	i	15
CCCn1nc(CC(=O)OCC)c2ccccc2c1=O	i	1.1
CCNc1ccc(S(=O)(=O)NCCN(C)C)cc1[N+](=O)[O-]	i	1
CC1(C)Cc2ccccc2C(/C(=N\Nc2cccc(Cl)c2)C(N)=O)=N1	i	0.03
Nc1c(C(=O)NCC2CCCO2)c2nc3ccccc3nc2n1-c1ccccc1 (stereo not given)	i	-0.62
O=S(=O)(Nc1ccc(F)cc1)N1CCOCC1	i	0.07
CCN(CC)S(=O)(=O)c1ccc(C)c(NC(=O)CSc2nc3ccccc3[nH]2)c1	i	-2.9
CC(C)C(NC(=O)c1ccco1)C(=O)OCC(=O)Nc1ccc(C(N)=O)cc1 (stereo not given)	i	1.3
Cc1ccc(-c2ccc(SCC(=O)N3CCCc4ccccc43)nn2)cc1	i	-1.2
COc1ccc(CN(C)C(=O)CCN(c2ccccc2)S(=O)(=O)c2ccc(C)cc2)c(OC)c1	i	-0.02
N=c1c2c(-c3ccccc3)c(-c3ccccc3)n(Cc3ccco3)c2ncn1CCCn1ccnc1	i	1.3
Cn1c(=O)c2sccc2n2c(CCCC(=O)Nc3ccccc3)nnc12	i	0.06
Cc1nc2ccc(Cl)cc2nc1C	i	-3.5
CCOC(=O)c1c(C)n(CCOc2ccccc2)c2ccc(O)cc12	i	1.9

Four entries out of the list, ordered by length of the SMILES, ascending.
SMILES	KCNQ2 inh	KCNQ2 inh baseline
CCOC(=O)c1c(C)n(CCOc2ccccc2)c2ccc(O)cc12	i	1.9
CCNc1ccc(S(=O)(=O)NCCN(C)C)cc1[N+](=O)[O-]	i	1
Nc1c(C(=O)NCC2CCCO2)c2nc3ccccc3nc2n1-c1ccccc1 (stereo not given)	i	-0.62
C/C(=N\NC(=O)c1cc(-c2ccccc2C)nc2ccccc12)c1cccnc1	i	-0.48

Part of the list above, with values under each structure.
Every second line gives: KCNQ2 inh, KCNQ2 inh baseline
COc1ccc(N(S(=O)(=O)c2ccccc2)S(=O)(=O)c2ccccc2)c(N)c1
 : i, -0.22
O=c1[nH]c(C2CCCN(S(=O)(=O)c3ccccc3)C2)nc2c1nnn2Cc1ccccc1F (stereo not given)
 : i, -0.03
c1ccc(-c2nnc(OCc3cccnc3)c3ccccc23)cc1
 : i, 0.11
